Vaccinia Venus: inhibitors of vaccinia virus (Venus reporter) | Vaccinia virus Venus reporter expression, fluorescence | Potency, µM (series often up to 36.5 µM), without a hit: top-dose activity change, negative = inhibition, hits mostly inhibitors | 0.46% of 330,000 active; active means well fitted inhibition curve with a large enough effect; inconclusive means small, poorly fitted or top-dose-only effect; inactive means no such curve, though single readings can be large or run the other way; tested in A549 cells; further: nearly all actives have a fitted effect of over 30% in size; inactives centre near -10
Vaccinia mCherry: vaccinia inhibition (mCherry reporter); Vaccinia virus mCherry reporter infection, fluorescence; about a quarter of the inactives have no number; Potency, µM (doses to about 36.5 µM), for inactives: top-dose activity change, negative = inhibition, actives largely listed as inhibitors; 0.63% of 310,000 active; active = well fitted inhibition curve with a large enough effect; inconclusive = small, poorly fitted or top-dose-only effect; inactive = no such curve, though single readings can be large or run the other way; tested in A549 cells; further: nearly all actives have a fitted effect of over 35% in size; inactives centre near -10
Active calls of the source: *; i = inactive; ? = inconclusive; . = not tested or not shown; & = joins results of further samples; [ ] = remark or other dose. On the % scale 0 is the no-effect control and ±100 the full control effect; potency means the concentration at half of the fitted maximal effect.

| molecule | Vaccinia Venus | Vaccinia mCherry |
| --- | --- | --- |
| CC(=O)c1ccc(F)c(-c2cc(C)cc3c2OC(CNC(=O)c2csc(C)n2)C3)c1 (configuration not stated) | -14.6% | -19.2% |
| O=C(NCCCc1ccccc1)c1cc(COc2ccc(F)cc2Cl)on1 | -12.8%[7.34 µM] | -2.7%[7.34 µM] |
| Cc1cccc(OCCn2c(-c3ccc(Cl)cc3)nc3ccccc3c2=O)c1C | 4.6% | 4.7% |
| O=C(NC1CCOCC1)C1CCC(=O)N(CCc2cccc(F)c2)C1 (configuration not stated) | -1.1% | -8.7% |
| CC(=O)N1CCc2c(sc3c2c(=O)n(-c2ccc(F)cc2)c(=O)n3Cc2cc(C)ccc2C)C1 | -4.2% | -9.5% |
| Cc1cnc(CNC(=O)c2csc([C@@H]3C[C@H](O)[C@@H](CO)O3)n2)cn1 | 70.4%[activator] | -0.2% |
| Cc1ccc(S(=O)(=O)N2CCN(c3nc(-c4cncnc4)nc4ccccc34)CC2)cc1 | -12.3% | i |
| O=C(NC1CCCC1)C1c2ccccc2OCC(=O)N1C1CC1 (configuration not stated) | -0.4% | 10.2% |
| COc1ccccc1Oc1ccc(N/C=C/C(=O)c2ccc(C)o2)cc1 | -22.5% | ? |
| CC(C)C(C)NC(=O)COc1ccc(S(=O)(=O)N2CCOCC2)cc1[N+](=O)[O-] (configuration not stated) | -10.9% | -4.1% |
| O=C(c1ccc2c(c1)N(Cc1cccc(F)c1)C(=O)c1ccccc1S2)N1CCC2(CC1)OCCO2 | -0.7% | -2.5% |
| COc1ccccc1C(=O)Nc1ccc2c(c1)nc1n2CCN(Cc2ccccc2)C1 | -27.2% | -12.9% |
| CCOc1ccc(-n2nc3cc(C)c(NC(=O)CC)cc3n2)cc1 | 2.9% | -14.8% |
| COc1ccc(NC(=O)N[C@@H](CCSC)C(=O)O)cc1Cl | -14.4% | . |
| O=[N+]([O-])c1ccccc1N/N=C/c1c[nH]c2ccccc12 | -26.7% | -24.9% |
| c1ccc(-c2nc(NCc3ccco3)c3ccccc3n2)nc1 | 11.2µM* | ? |
| NCCNC(=O)c1c(NC(=O)c2ccccc2)sc2c1CCCC2 | -12.7% | ? |
| CC(C)N1CCC(N2CCN(Cc3ccc4nonc4c3)CC2CCO)CC1 (configuration not stated) | -4.7% | i |
| Brc1cc(Br)c2nc(-c3cccs3)ccc2c1 | -9.4% | i |
| C[C@H](CO)N1C[C@H](C)[C@@H](CN(C)S(=O)(=O)c2ccccc2)Oc2ccc(NC(=O)NC3CCCCC3)cc2C1=O | -15.0% | -5.0% |
| COC(=O)c1ccc(CNC(=O)CSC2=NCCS2)cc1 | -0.6% | -4.0% |
| N#Cc1c(SCC(=O)Nc2cccc(F)c2)sc2c(O)cc(=O)[nH]c12 | -6.9% | 5.5% |
| CC(C)C(=O)Nc1nnc(S(=O)(=O)N2c3ccccc3CC2C)s1 (configuration not stated) | -11.0%&-11.4% | -21.4%&-9.9% |
| Cc1ccc(-n2c(SCC(N)=O)nc3c([nH]c4ccccc43)c2=O)cc1 | -7.9%&-9.5% | -7.2%&4.0% |
| CCOC(=O)c1c(C)oc2ccc(NS(=O)(=O)c3cccs3)cc12 | -9.2% | -9.4% |
| O=c1c2c(nc3nc(COc4ccccc4)[nH]n13)CCC2 | 17.9% | . |
| COC(=O)c1ccc(C)c(NC(=O)CCCN2C(=O)CN(C)C2=O)c1 | -3.0% | -9.4% |
| CCOc1ccccc1N(CC(=O)NCCSc1ccccn1)S(=O)(=O)c1ccc(C)cc1 | 8.2% | -4.5% |
| Cc1ccc(C(=O)N2N=C3c4ccccc4S(=O)(=O)N3[C@H]2N(C)C)cc1 | -4.0% | i |
| CC(=O)NNc1ncnc2c1cnn2-c1ccc(C)c(Cl)c1 | -6.0% | -0.1% |

Arranged by heavy-atom count (descending): six of the compounds above.
| molecule | Vaccinia Venus | Vaccinia mCherry |
| --- | --- | --- |
| CCOc1ccccc1N(CC(=O)NCCSc1ccccn1)S(=O)(=O)c1ccc(C)cc1 | 8.2% | -4.5% |
| Cc1ccc(C(=O)N2N=C3c4ccccc4S(=O)(=O)N3[C@H]2N(C)C)cc1 | -4.0% | i |
| COC(=O)c1ccc(C)c(NC(=O)CCCN2C(=O)CN(C)C2=O)c1 | -3.0% | -9.4% |
| CC(C)C(=O)Nc1nnc(S(=O)(=O)N2c3ccccc3CC2C)s1 (configuration not stated) | -11.0%&-11.4% | -21.4%&-9.9% |
| CC(=O)NNc1ncnc2c1cnn2-c1ccc(C)c(Cl)c1 | -6.0% | -0.1% |
| O=c1c2c(nc3nc(COc4ccccc4)[nH]n13)CCC2 | 17.9% | . |

(more compounds)
| molecule | Vaccinia Venus | Vaccinia mCherry |
| --- | --- | --- |
| COC(=O)c1ccc2nc(-c3ccco3)c(Cc3cccc(F)c3)n2c1 | 1.7% | 1.7% |
| CC1=CC(C)(C)N(C(=O)CN2C(=O)CCC2=O)c2ccc(C)cc21 | -10.9% | ? |
| CN(CC(=O)Nc1ccc2c(c1)OCO2)S(=O)(=O)c1cccs1 | -8.8% | ? |
| COc1ccc(-c2[nH]c(-c3ccc(F)cc3)nc2SCC(=O)NC2CCCC2)cc1 | ? | ? |
| COc1ccc(C(=O)COC(=O)CCc2ccccc2)cc1 | -11.7% | i |
| COc1cc(OC)c(OC)cc1/C=N/NC(=O)CC1C(=O)NN=C1C (configuration not stated) | -14.2% | -18.8% |
| COC1CCN(C(=O)c2ccc3oc(C(C)C)nc3c2)CC1 | -18.4% | -0.2% |
| CCn1cnc2cc(NC(=O)COc3ccc(C)cc3)ccc21 | -25.6% | -5.7% |
| Cc1ccn2c(Nc3ccc4c(c3)OCCO4)c(-c3ccc(N(C)C)cc3)nc2c1 | -7.8% | -12.9% |
| O=C(C1CCCN(S(=O)(=O)c2ccccc2[N+](=O)[O-])C1)N1CCCC1 (configuration not stated) | -0.8% | -8.3% |
| O=C(CN1CC(=O)Nc2ccccc21)NCCc1ccc(Cl)cc1Cl | 0.5% | -9.7% |
| N#Cc1nc(-c2ccc(OCc3ccccc3Cl)cc2)oc1N1CCC(C(N)=O)CC1 | -20.3% | -21.9% |
| O=C1CC(N2CCC(c3nc4ccccc4[nH]3)CC2)C(=O)N1Cc1ccccc1 (configuration not stated) | -12.3% | i |
| O=C(C1=C[C@H](C2CC2)C[C@H](OCc2ccc(CO)cc2)O1)N1CCOCC1 | -7.4% | -5.4% |
| CC(=O)N1CCN=C1SCc1c(F)cccc1Cl | -5.0% | 7.1% |
| CCCNc1nc(OC(C(F)(F)F)C(F)(F)F)nc(OC(C(F)(F)F)C(F)(F)F)n1 | 0.3% | i |
| Cc1ccc2c(ccc[n+]2CC(=O)c2ccccc2)c1 | -7.6% | ? |
| COC(=O)[C@@]12CCCCN1[C@H](c1ccc(-c3ccc(F)cc3)c(OC)c1)[C@@H]1C(=O)N(C)C(=O)[C@@H]12 | ? | -15.8% |
| Cc1csc(N(C)C(=O)CSc2nnc(COc3ccccc3C)o2)n1 | -7.4% | -23.0% |
| O=C1NC(=S)S/C1=C/c1ccc(Oc2cnccn2)cc1 | 4.5% | i |
| CCN1CCN(C(=O)NCc2ccccc2)CC1 | -7.1% | -9.2% |
| c1ccc2c(c1)OCC(c1nn3c(Cn4nnc5ccccc54)nnc3s1)O2 (configuration not stated) | -23.7% | -15.2% |
| CC(C)[C@H](COC=O)NC(=O)[C@H]1O[C@@H](n2ccc(N)nc2=O)[C@H](O)[C@@H]1O | -1.3% | 52.1%[activator] |
| O=C(NN=C1CCN(Cc2ccccc2)CC1)c1cc(Br)ccc1O | -5.3% | -1.8% |
| CCOC(=O)c1c(C)nc(C(Cl)(Cl)Cl)nc1N | -11.2% | -8.4% |
| CCOc1ccc(-c2ccc(SCC(=O)NC3CCCCC3)nn2)cc1 | -7.0% | i |
| Fc1cc(Cl)ccc1NC(=S)NCCN1CCOCC1 | -15.8% | -2.4% |
| CCOc1ccc(CCNC(=O)COC(=O)c2ccc(Br)o2)cc1OCC | -6.3% | i |
| Clc1ccc(-c2csc(Nc3cccnc3)n2)cc1 | 14.0% | ? |
| O=C(CSc1ccc(-c2cccnc2)nn1)c1ccc([N+](=O)[O-])cc1 | -8.3% | -9.5% |
| O=C(CCc1ccccc1)Nc1ncc([N+](=O)[O-])s1 | ? | ? |
| CCCCn1nc2cc(C(=O)N[C@H](C)C3CCCCC3)ccc2c1OCC | -21.3% | ? |
| O=C(COC(=O)c1cc2ccccc2cc1O)Nc1cccnc1Cl | -7.6% | -11.2% |
| COc1ccc(Cn2ccc3nc(C)c(C(=O)N4CCN(c5ccccc5OC)CC4)cc3c2=O)cc1 | -17.1% | -15.9% |
| O=C1CSC(c2ccc([N+](=O)[O-])cc2)N1CCN1CCCCC1 (configuration not stated) | 4.1% | -0.8% |
| COc1cccc(NC(=O)Cn2nnc(C(=O)NCCc3ccccc3)c2N)c1 | -8.4% | i |
| O=C(NC1CCCC1)C(c1ccc(Cl)cc1)N(Cc1ccc(F)cc1)C(=O)CCl (configuration not stated) | -1.4% | i |
| Cc1ncc2n1-c1ccc(Cl)cc1C(c1ccccc1F)=NC2 | -7.9% | -14.1% |
| CCn1c(C)nc2cc(C(=O)NNC(=S)Nc3ccc(OC)cc3)ccc21 | -26.7% | ? |
| O=C(CSc1nnc(COc2ccccc2)o1)Nc1cc(C(F)(F)F)ccc1Cl | 1.2% | -3.2% |
| O=C(NC(=S)Nc1ccc(Cc2ccncc2)cc1)c1ccccc1F | -26.7% | -16.9% |
| Cc1occc1-c1nnc(SCC(=O)c2ccc(Cl)cc2)n1CC1CCCO1 (configuration not stated) | -1.4% | -8.1% |
| COC(=O)[C@@]12C[C@@H](CC(=O)NCCC(C)C)C(=O)N(CCc3ccc(OC)c(OC)c3)C1=CCC(C)(C)C2 | -27.7% | -11.0% |
| NC(=O)CN1CC(c2ccccc2)CC1=O (configuration not stated) | -15.4% | -7.2%[1.46 µM] |
| COc1cc(OC)c(NS(=O)(=O)c2ccc3c(c2)CCCN3C(C)=O)cc1Cl | -10.0%[7.34 µM] | -14.9%[7.34 µM] |
| CCOC(=O)c1[nH]c2ccc(OC)cc2c1NC(C)=O | -11.3% | . |
| O=C(CCc1ccc(S(=O)(=O)NCCc2ccccc2)cc1)Nc1ccc2c(c1)OCCO2 | ? | ? |
| COC(=O)C(C)NC(=O)C(C)NC(=O)OCc1ccccc1 (configuration not stated) | 4.3% | -5.3% |
| Cc1ccc(-n2c(N)c(Br)c(=O)[nH]c2=O)cc1C | -3.6% | i |
| COc1ccc(S(=O)(=O)NCCc2nnc3ccc(SCC(=O)Nc4cc(C)on4)nn23)cc1 | -2.1% | i |

Single records (already shown). Order of values: Vaccinia Venus | Vaccinia mCherry
Listed for NC(=O)CN1CC(c2ccccc2)CC1=O (configuration not stated) → -15.4% | -7.2%[1.46 µM]
Listed for Cc1ccc(-n2c(N)c(Br)c(=O)[nH]c2=O)cc1C → -3.6% | i
Listed for CCOC(=O)c1[nH]c2ccc(OC)cc2c1NC(C)=O → -11.3% | .
Listed for COc1cc(OC)c(NS(=O)(=O)c2ccc3c(c2)CCCN3C(C)=O)cc1Cl → -10.0%[7.34 µM] | -14.9%[7.34 µM]
Listed for COC(=O)C(C)NC(=O)C(C)NC(=O)OCc1ccccc1 (configuration not stated) → 4.3% | -5.3%

Later entries:
| molecule | Vaccinia Venus | Vaccinia mCherry |
| --- | --- | --- |
| COc1cccc(CNC(=O)Cn2ncn3c(cc4ccccc43)c2=O)c1 | -7.0% | -14.3% |
| Cc1ccc(-c2noc(C3CCN(S(=O)(=O)c4ccc5c(c4)OCCO5)CC3)n2)o1 | ? | ? |
| CCOc1ccc2c(c1)[C@@H]1C=CC[C@@H]1[C@H](c1ccccc1Cl)N2 | -1.6% | -8.2% |
| CC(C)C(=O)Nc1ccc2nc(SCC(=O)N3CCOCC3)sc2c1 | -0.1% | 2.5% |
| Cc1noc(C)c1S(=O)(=O)Nc1ccc(O)c2c(=O)cc(-c3ccccc3Cl)oc12 | -9.2% | i |
| CN(CC(=O)Nc1ccccc1Cl)C(=O)COC(=O)c1ccc(=O)n(Cc2ccccc2)n1 | -0.1% | -11.8% |
| O=C1OC(c2ccccc2)=N/C1=C\N1CCCCC1 | -11.1% | -14.5% |
| O=C(NC(C(=O)c1ccccc1)n1cnccc1=O)c1ccccc1 (configuration not stated) | -8.8% | . |
| Oc1ccc(/C=N/N2CCCCC2)c(O)c1O | 1.6% | -5.8% |
| C/C(CC(=O)Nc1ccc(Cl)cc1C(F)(F)F)=N\NC(=O)c1cccs1 | -7.8% | -13.7% |
| CC(=O)c1ccc(NC(=O)Cn2c(=O)nc(-c3ccccc3)c3ccccc32)cc1 | -19.6% | -19.1% |

From PubChem
